# Source: PubChem
# CBX7 inh: CBX7 chromodomain binding inhibitors, primary screen, biochemical, AlphaScreen. Chromobox protein homolog 7 (Homo sapiens), O95931. AlphaScreen His6-CBX7 / biotin-H3K27me3 peptide binding; stronger effect = lower value. normalised signal (fraction of DMSO) (test concentration not listed). actives 1.1% (n = 66,000). AID 1224903, 2016; in the data active = normalised signal below about 0.5;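 note: 100 nL library stock added to about 20 µL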
# Target sequence (O95931 whole entry, looked up): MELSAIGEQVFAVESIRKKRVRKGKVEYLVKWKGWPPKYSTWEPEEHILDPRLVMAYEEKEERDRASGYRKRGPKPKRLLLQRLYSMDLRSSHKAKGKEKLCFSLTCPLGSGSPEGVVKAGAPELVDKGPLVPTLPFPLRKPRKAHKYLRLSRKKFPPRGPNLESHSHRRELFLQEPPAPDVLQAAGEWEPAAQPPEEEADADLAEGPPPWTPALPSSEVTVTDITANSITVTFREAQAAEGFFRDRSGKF
# CBX7 inh z-score: also measured in CBX7 inh; calls as there; z-score; measured here: z-score of CBX7 signal; some inactives read as strong as hits; reference of the scale not given here;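 same signal on another scale; lower means less binding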
# Active calls of the source: *; & = joins results of further samples.
SMILES,CBX7 inh,CBX7 inh z-score
CCCNC(=O)CC1Oc2ccc(C)cc2NC1=O (configuration not stated),1.13,3.09
O=C(C1CCN(S(=O)(=O)c2cccc3cccnc23)CC1)N1CCN(c2cccc(Cl)c2)CC1,0.868,-1.65
COc1c(Cl)ccc(Cl)c1C(=O)Nc1ccccc1F,1.08,0.134
O=C(Nc1ccc(-c2nc3cc(Cl)ccc3o2)cc1)C(F)(F)F,1,0.0519
COc1ccc(OC)c(-n2cnc3cc(C(=O)NCc4ccccc4Cl)ccc32)c1,0.807,-2.43
CCN(CC)S(=O)(=O)c1ccc(C(=O)Nc2nnc(-c3cc(OC)cc(OC)c3)o2)cc1,0.885,-1.93
Cc1ccc(-c2cc(-c3ccccc3)nc3ncnn23)cc1,0.988,-0.344
CCn1cc(C(=O)Nc2cccc(NC(C)=O)c2)c(=O)c2ccc(C)nc21,1.03,0.271
O=C(Nc1ccc(Br)cc1F)c1sccc1-n1cccc1,1.01,0.27
O=C(CCc1nc2ccccc2[nH]1)N1CCC(Cc2ccccc2)CC1,1.02,0.871

SMILES,CBX7 inh,CBX7 inh z-score
COc1cccc(Nc2nc(-c3ccc(F)cc3)cs2)c1,0.465*,-3.82*
CC(C)(C)NC(=O)CSc1nc2ccccc2[nH]1,1.04,1.14
Cc1cccc2nc(-c3ccc(O)cc3)c(Nc3ccc4c(c3)OCCO4)n12,0.842,-2.58
Cc1cc(C(=O)Nc2cccc(C(F)(F)F)c2)no1,1.05,1.36
COCCNC(=O)c1ccc2nc(N3CCOCC3)sc2c1,1.01,0.594
Cc1[nH]c2ccccc2c1CCNS(=O)(=O)c1ccc(S(N)(=O)=O)cc1,0.93,-1.53
CCOCCCNC(=O)c1cc(Nc2ccc(C(C)C)cc2)nc2ccccc12,1.16,0.155
O=C(O)c1ccc(-c2nc(-c3ccccc3)c(-c3ccc(F)cc3)[nH]2)cc1,0.625,-9.35
CC(C)OCCCNC(=O)c1c[nH]c2ccc(S(=O)(=O)Nc3ccccc3F)cc2c1=O,0.94,-1.11
CCOC(=O)c1cnc2c(C)c(Cl)ccc2c1NCCN(C)C,1.19,2.28

# An excerpt from above in order of the CBX7 inh z-score value, largest number first:
Compound,CBX7 inh z-score
CCOCCCNC(=O)c1cc(Nc2ccc(C(C)C)cc2)nc2ccccc12,0.155
Cc1[nH]c2ccccc2c1CCNS(=O)(=O)c1ccc(S(N)(=O)=O)cc1,-1.53
COc1cccc(Nc2nc(-c3ccc(F)cc3)cs2)c1,-3.82*

# The list continues:
SMILES,CBX7 inh,CBX7 inh z-score
COc1ccc(CCNC(=O)CCCn2nc(C)c3cc(F)ccc32)cc1OC,0.917,-1.97
CC(=O)Nc1ccc(NC(=O)c2sc3nc(-c4ccc(F)cc4)cn3c2C)cc1,0.922,-1.5
CCn1cc(C(=O)N2CCCCC2C)c(=O)c2ccc(C)nc21 (configuration not stated),1.04,0.38
CN(c1ccccc1)S(=O)(=O)c1ccc(C(=O)Nc2nc(-c3ccncc3)cs2)cc1,0.968,-0.784
COc1ccc(CNC(=O)CCNC(=O)Cn2ccc3ccccc3c2=O)c(OC)c1,1.1,2.22
O=C(Nc1ccc(Cl)c(-c2nc3ccccc3o2)c1)c1ccc(F)cc1,1.01,0.293
COC(=O)c1[nH]cnc1C(=O)c1ccccc1,1.06,0.709
CCOC(=O)c1cc(-c2ccccc2)n(CCC(=O)Nc2ccc(F)c(Cl)c2)c1C,0.931,-0.862
Cc1ccc(CN2C(=O)C(O)(CC(=O)c3ccncc3)c3cc(Cl)ccc32)cc1 (configuration not stated),0.599,-0.532
Cc1ccc(N2C(=O)c3ccccc3C2Nc2cccc(C)c2C)nc1 (configuration not stated),0.965,-1.15

# Compound profiles, as listed above. Order of screens: CBX7 inh, CBX7 inh z-score
# `Cc1ccc(N2C(=O)c3ccccc3C2Nc2cccc(C)c2C)nc1` (configuration not stated) reads 0.965, -1.15
# `CN(c1ccccc1)S(=O)(=O)c1ccc(C(=O)Nc2nc(-c3ccncc3)cs2)cc1` reads 0.968, -0.784
# `O=C(Nc1ccc(Cl)c(-c2nc3ccccc3o2)c1)c1ccc(F)cc1` reads 1.01, 0.293
# `CCOC(=O)c1cc(-c2ccccc2)n(CCC(=O)Nc2ccc(F)c(Cl)c2)c1C` reads 0.931, -0.862

# Further records.
SMILES,CBX7 inh,CBX7 inh z-score
Cc1ccc2sc(-c3ccc(NC(=O)COc4ccccc4)cc3)nc2c1,1.08,3.13
COc1ccc(NC(=O)C2=CCN(S(=O)(=O)c3ccccc3)CC2)cc1OC,1.01,0.24
CCCNC(=O)c1ccc2c(c1)N(Cc1cccc(Cl)c1)C(=O)CS2,1.01,0.234
O=C(Cc1ccccc1)Nc1ccc2oc(-c3cccc(I)c3)nc2c1,1.14,1.53
Cc1cc2nc(-c3cccc(N)c3)oc2cc1C,0.903,-2.87
COc1cccc(-c2cc(C(F)(F)F)nc(NCCc3ccccc3)n2)c1,1.7,5.64
Cc1sc2ncnc(Nc3ccc(-c4ccccc4)cc3)c2c1C,1.4,0.817
COc1ccc(-n2nc3c(c2NC(=O)c2ccc(OC(C)C)cc2)CSC3)cc1,1.08,1.41
CCCS(=O)(=O)N1CCC(C(=O)NCCc2ccccc2)CC1,1.04,0.873
O=C(Nc1nc(-c2ccc3ccccc3c2)cs1)c1ccc(F)cc1,1.06,1.08

SMILES,CBX7 inh,CBX7 inh z-score
Cc1ccc(-c2nn(CC(=O)Nc3cccc(C)c3)c(=O)c3ccccc23)cc1,1.03,0.567
CCCCn1c(=N)n(CC(O)c2ccc(OC)cc2)c2ccccc21 (configuration not stated),1.05,0.232
CCN(CC)c1ccc2c(C)c(CO)c(=O)oc2c1,0.997,-0.0351
Cc1noc(C)c1S(=O)(=O)N1CCC(C(=O)NCCc2ccc(Cl)cc2)CC1,1.02,1.01
Cc1cc(-n2nc3ccc(Cl)cc3n2)c(O)c(C(C)(C)C)c1,1.2,3.88
O=C(Nc1ncc(CN2CCOCC2)s1)c1ccc(Cl)cc1Cl,1.02&0.852,0.653&-1.86
Cc1ccc(C)c(NC(=O)CC2Oc3ccccc3NC2=O)c1 (configuration not stated),1.18,3.44
Cc1ccc2oc(-c3ccc(NC(=O)c4ccccc4F)c(C)c3)nc2c1,1.24,2.48
CCOc1ccc2nc(NC(=O)Cc3ccc(OC)cc3)sc2c1,0.982,-0.484
O=C(Cn1cnc2sc3c(c2c1=O)CCCC3)NCc1ccc(F)cc1,1.09,2.67

SMILES,CBX7 inh,CBX7 inh z-score
COCCNC(=O)c1cnn2c(C(F)(F)F)cc(-c3ccccc3)nc12,1.02,0.817
COc1ccc(OC)c(NC(=O)c2cc(-c3ccccc3)nc3ccccc23)c1,1.23,0.801
COc1ccc(N2Cc3cccc(C(=O)Nc4cccc(F)c4)c3C2=O)cc1,0.739,-4.85
O=c1oc2ccc3ccccc3c2cc1-c1nnc(-c2ccccc2)o1,0.949,-0.559
Cc1ccccc1NC(=O)Nc1cc2sccc2n1C,1.02,0.629
COc1ccc(-c2noc(COc3ccc(Br)cc3Cl)n2)cc1OC,0.996,-0.0689
O=C(CCN1N=C(c2ccccc2)CCC1=O)NCCCN1CCCCCC1,1.25,4.45
Cc1cc(N2CCN(C)CC2)nc2ccc(NC(=O)CCC(=O)NCCCOC(C)C)cc12,1.05,0.79
COC(=O)C1=C(C)N(C)C(=O)NC1c1ccc(OC)c(Br)c1 (configuration not stated),0.975,-0.422
Cc1onc(-c2ccccc2Cl)c1C(=O)Nc1ccc(OCc2ccccc2)cc1,0.936,-0.994

SMILES,CBX7 inh,CBX7 inh z-score
CC(C)(CO)NCc1ccccc1OCc1ccccc1,1.04,1.2
COCCCNC(=O)C1C2C=CC3(CN(Cc4ccccc4Cl)C(=O)C13)O2 (configuration not stated),0.824,-0.693
O=C(Nc1nccs1)c1ccc2c(c1)C(=O)N(c1ccccc1-c1ccccc1)C2=O,0.978,-0.2
COc1cccc(C(=O)Nc2c(C(=O)Nc3cccc(F)c3)oc3ccccc23)c1OC,0.972,-0.359
Cc1ccc(C(=O)CC2(O)C(=O)N(Cc3ccccc3)c3ccc(Cl)cc32)cc1 (configuration not stated),0.947,-0.504
Cc1cccc(N(C)S(=O)(=O)c2ccc3[nH]cc(C(=O)N4CCOCC4)c(=O)c3c2)c1,1.07,0.854
COc1ccccc1Nc1nc(C(F)(F)F)c(-c2ccccc2)s1,1.05,0.909
O=C(Nc1ccccc1-c1nc2ccccc2[nH]1)c1ccc(S(=O)(=O)N2CCOCC2)cc1,1.09,1.37
O=S(=O)(c1ccc(Cl)c(Cl)c1)N1CCn2c(nc3ccccc32)C1,1.11&1.1,1.1&2.84
CSc1cccc(NS(=O)(=O)c2ccc3[nH]cc(C(=O)NCc4ccc(C)cc4)c(=O)c3c2)c1,0.625,-7.05

SMILES,CBX7 inh,CBX7 inh z-score
Clc1ccccc1-c1nnc2sc(-c3cccnc3)nn12,1.02,0.62
COC(=O)c1ccc(NC(=O)C(Cc2ccccc2)N2C(=O)c3ccccc3C2=O)cc1 (configuration not stated),0.984,-0.0398
O=C(NCC1CCCO1)c1nnc(Cc2ccc(F)cc2)o1 (configuration not stated),0.891,-1.26
COc1ccccc1-c1nnc(NC(=O)Nc2ccccc2)s1,1.18,0.76
CCN(CCCNC(=O)c1c[nH]c2ccc(S(=O)(=O)N(CC)CC)cc2c1=O)c1cccc(C)c1,0.423*,-6.22*
CCOc1ccc(NC(=O)CN2N=C(c3ccc(C)cc3)CCC2=O)cc1,1.04,0.606
O=C(NCCN1CCOCC1)c1ccc2c(c1)N(Cc1ccccc1)CCS2,0.941,-0.0784
CCCCCCOc1ccc(C(=O)Nc2nc3ccccc3s2)cc1,1.01,0.011
Oc1ccc(Nc2nc(-c3ccncc3)cs2)cc1,0.786,-2.31
Cc1ccc2c(c1)N(CCCC(=O)NC1CCCC1)C(=O)CO2,1.01,0.258

SMILES,CBX7 inh,CBX7 inh z-score
CCOc1ccc(-c2cn(-c3cccc(Br)c3)c(=O)[nH]2)cc1Cl,0.935,-1.55
CCN(CCCNC(=O)C1CC(=O)N(Cc2ccc(OC)cc2)C1)c1cccc(C)c1 (configuration not stated),0.66,-0.691
Cc1cccc(OCC(=O)Nc2ccc3c(c2)nc2n3CCN(Cc3ccccc3)C2)c1,1.02,0.755
CCOc1ccccc1NC(=O)c1sc2ncn(CC(=O)N3CC(C)CC(C)C3)c(=O)c2c1C (configuration not stated),0.975,-0.669
Cc1ccc(-c2csc3ncnc(Nc4ccc(C)c(C)c4)c23)cc1,1.06,0.124
COc1ccc(C2(C(=O)NCc3ccccc3)CCOCC2)cc1,1.16,2.01
Cc1ccc(OCCn2c(=N)n(CCO)c3ccccc32)cc1,0.969,-0.202
O=C(Nc1cccs1)Nc1ccc(Br)cc1F,1.04,1.61
O=C(CCCN1C(=O)CSc2ncccc21)NCCc1ccc(Cl)cc1,1.05,0.133
Cc1cccc(NC(=O)CN(c2ccc(C(C)C)cc2)S(=O)(=O)c2c(C)nn(C)c2C)n1,0.799,-3.13

SMILES,CBX7 inh,CBX7 inh z-score
COc1ccc(-n2nc3c(c2NC(=O)C2CCCC2)CSC3)cc1,1.01,0.249
Cc1nnc(Nc2ccc(C(=O)N(C)C)cc2)c2ccccc12,0.999,-0.0415
COc1ccc(CCNC(=O)c2cn(CC(C)C)c(=O)c3c2c2ccccc2n3C)cc1OC,0.941,-1.06
Cc1ccccc1-n1nc2c(c1NC(=O)c1ccc(Cl)cc1)CS(=O)(=O)C2,0.997,-0.0504
COc1cccc(Nc2nc(-c3cccc(C)c3)nc3ccccc23)c1,1.35,10.6
Cc1oc(-c2ccccc2Cl)nc1CSCC(=O)NC1CCCCC1C (configuration not stated),0.963,-0.69
Cc1nc(N2CCN(c3ccccc3Cl)CC2)c2c3c(sc2n1)CCCC3,1.01,0.14
COc1ccc(OC)c(NC(=O)Cn2cc(S(=O)(=O)c3ccccc3)c(=O)c3cc(C)ccc32)c1,0.864,-1.91
COc1cc(C(=O)Nc2nnc(CSCc3ccccc3)s2)cc(OC)c1OC,1.06,1.11
O=C(NCc1ccc2c(c1)OCO2)c1nnc(Cc2ccc(Cl)cc2)o1,1.04,1.49

SMILES,CBX7 inh,CBX7 inh z-score
Cc1cccc(C)c1NC(=O)C(NC(=O)CN1CC(=O)Nc2ccccc21)c1ccccc1 (configuration not stated),0.967,-0.212
CC(c1ccccc1)c1nnc(NC(=O)C2CCCCC2)s1 (configuration not stated),0.988,-0.136
Cc1ccc(NC(=O)C2C3C=CC4(CNC(=O)C(c5ccc(C)cc5)N(CCC5=CCCCC5)C(=O)C24)O3)cc1 (configuration not stated),0.852,-3.2
CCOC(=O)c1oc2ccccc2c1NC(=O)C1CCCC1,1.08,2.95
COc1ccccc1-c1cc2nc(C)c(CCC(=O)N3CCOCC3)c(C)n2n1,1.07,1.23
COCCN1Cc2cccc(C(=O)Nc3ccccc3C(=O)OC)c2C1=O,0.994,-0.00601
CCOC(=O)c1c(NC(=O)COc2ccc(OC)cc2)sc(C)c1C,1.02,0.455
CCN(CC)CCSc1nc(O)c(C)c(=O)[nH]1,1.07,1.04
O=C1C2C(C(=O)N1c1ccncc1)C1C=CC2C12CC2 (configuration not stated),1.03,0.415
CCOc1ccc(OCC)c(Nc2cc(C)nc3nc(C)nn23)c1,0.989,-0.365

SMILES,CBX7 inh,CBX7 inh z-score
CCCCNC(=O)NS(=O)(=O)c1c(C)cc(C)nc1Cl,1.03,0.92
Cc1oc(-c2cccc(Cl)c2)nc1CN1CCC(C(=O)NC2CCCC2)CC1,1.03,0.735
C=C(C)c1cccc(C(C)(C)NC(=O)NCCc2ccc(S(N)(=O)=O)cc2)c1,1.12,4.06
CCn1cc(C(=O)N2CCN(c3cccc(Cl)c3)CC2)c(=O)c2ccc(C)nc21,1.02,0.234
CCN(Cc1ccccc1)C(=O)C1(S(=O)(=O)c2ccc(C)cc2)CC1,1.05,1.95
C=CCNC(=O)c1oc2ccc(S(=O)(=O)N(CC)CC)cc2c1C,0.974,-1.01
Cc1ccc(CN2C(=O)CCC2C(=O)NCCCN2CCC(Cc3ccccc3)CC2)cc1 (configuration not stated),1.02,0.78
CCOC(=O)N1CCN(c2c(NC(C)CC)c(=O)c2=O)CC1 (configuration not stated),1,0.0599

# These rows are one share of the data; rates above refer to the full screens.
